aGlu spleen mod = lysosomal alpha-glucosidase (human) modulation; P10253; human spleen homogenate, 4-MU-alpha-glucoside fluorescence; Potency, µM (series often up to 79.9 µM), for the others: top-dose activity change, negative = inhibition, hits mostly inhibitors; actives 0.006% (n = 240,000); AID 2112;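 also: 0% = enzyme with vehicle and -100% = no enzyme basal signal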
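Compounds were titrated against alpha-glucosidase in spleen homogenate at pH 5.0, with 1 mM 4-methylumbelliferyl substrate for 40 min at 37 C. Reactions were quenched with pH 10 NaOH/glycine and fluorescence measured.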
Epigenetic reg = epigenetic control regulation, reporter derepression; murine LDR cells, GFP reporter derepression, 30 h; Potency, µM (doses to about 53.9 µM), for inactives: at the highest dose GFP activation, hits mostly activators; actives 0.2% (n = 280,000); AID 1865; also: % of control where 0% means no effect; nearly all actives have a fitted effect of over 60% in size
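Murine LDR cells bearing a silenced CMV-driven GFP reporter were exposed to compound for 30 h at 37 C. After PBS washes, GFP-positive cells (20-120 um objects) counted by laser-scanning microplate cytometry.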
GAA glycogen = inhibitors or activators of human alpha-glucosidase glycogen cleavage; P10253; recombinant GAA, glycogen substrate, Amplex Red glucose oxidase fluorescence; Potency, µM (series often up to 76.4 µM), without a hit: at the top dose activity change, negative = inhibition, hits mostly inhibitors; actives 0.38% (n = 300,000); AID 2100;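 also: 0% = full enzyme reaction and -100% = no-enzyme basal signal; the screen sought inhibitors and activators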
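qHTS, 1536-well; enzyme 4 nM final; cpd up to 77 uM; substrate bovine liver glycogen 30 ug; 50 mM citrate/phosphate pH 5.0, 0.01% Tween-20; 37 C, 40 min; Amplex Red detection 45 min RT; Hill fit → AC50.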
GAA inhib = blocks human lysosomal alpha-glucosidase; purified human GAA, 4-MU-alpha-glucoside fluorescence; P10253; AID 1466; Potency, µM (highest dose often 76.9 µM), for the others: top-dose activity change, negative = inhibition, most hits filed as inhibitors; actives 0.005% (n = 200,000);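 also: plate controls were uninhibited enzyme wells for no effect and no-enzyme background for full effect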
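Activity normalized between no-enzyme (basal) and enzyme-only wells. Conditions: 4 nM human enzyme, 400 uM fluorogenic substrate, citrate/phosphate pH 5.0 with Tween-20, 20 min room temperature, compounds up to 77 uM.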
GLA spleen mod = inhibits or activates alpha-galactosidase in human spleen homogenate. P06280. human spleen homogenate, 4MU-alpha-Gal fluorescence, 40 min. Potency, µM (top dose mostly 80 µM), for inactives: at the top dose activity change, negative = inhibition, hits mostly inhibitors. actives 0.008% (n = 240,000);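 also: 0% = enzyme with vehicle and -100% = no enzyme basal signal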
Target sequence (P06280 32-429 limits assumed): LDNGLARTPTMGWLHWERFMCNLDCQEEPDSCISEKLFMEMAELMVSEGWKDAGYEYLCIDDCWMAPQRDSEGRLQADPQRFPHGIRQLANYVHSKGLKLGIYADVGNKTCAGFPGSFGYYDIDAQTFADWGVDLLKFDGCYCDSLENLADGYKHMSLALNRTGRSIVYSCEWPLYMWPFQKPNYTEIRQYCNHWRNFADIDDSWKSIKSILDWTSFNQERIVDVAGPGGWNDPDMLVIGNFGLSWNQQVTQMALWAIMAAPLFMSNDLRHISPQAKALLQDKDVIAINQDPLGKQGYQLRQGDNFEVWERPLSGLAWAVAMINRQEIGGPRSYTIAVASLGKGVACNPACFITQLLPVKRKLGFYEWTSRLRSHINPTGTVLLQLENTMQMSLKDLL
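Inhibition or activation of alpha-galactosidase in human spleen homogenate is scored by 4-MU fluorescence after 40 min at 37C, pH 5.0, with 1 mM substrate. AC50s come from concentration-response fitted to the Hill equation.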
ALDH1A1 block = inhibitors of human aldehyde dehydrogenase 1A1 | AID 1030 | Potency, µM (doses to about 75.3 µM), without a hit: at the highest dose activity, negative = inhibition, hits mostly inhibitors | P00352 | Purified ALDH1A1, NADH fluorescence, propionaldehyde substrate | actives 7.3% (n = 220,000); active = well fitted inhibition curve with a large enough effect, not every such curve was filed as active; inconclusive = small, poorly fitted or top-dose-only effect, or another doubt; inactive = no such curve, though single readings can be large or run the other way;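 also: plate controls were no enzyme wells and a reference inhibitor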
Target sequence (P00352 whole entry, looked up): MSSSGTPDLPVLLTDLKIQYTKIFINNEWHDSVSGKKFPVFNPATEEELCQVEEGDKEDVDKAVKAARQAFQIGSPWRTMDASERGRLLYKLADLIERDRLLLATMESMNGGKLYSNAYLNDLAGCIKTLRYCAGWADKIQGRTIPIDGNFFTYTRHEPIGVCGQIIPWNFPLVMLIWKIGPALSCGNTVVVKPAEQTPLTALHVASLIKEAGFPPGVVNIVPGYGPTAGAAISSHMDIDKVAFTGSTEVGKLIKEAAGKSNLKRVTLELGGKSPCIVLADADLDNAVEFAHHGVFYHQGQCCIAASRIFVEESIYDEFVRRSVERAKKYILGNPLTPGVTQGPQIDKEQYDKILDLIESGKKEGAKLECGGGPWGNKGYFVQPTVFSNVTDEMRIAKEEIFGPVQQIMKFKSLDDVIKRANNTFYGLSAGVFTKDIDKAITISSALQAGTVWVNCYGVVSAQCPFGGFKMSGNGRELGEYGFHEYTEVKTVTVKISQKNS
Tau fluor counter = counter-screen for tau fibril formation inhibitors; Potency, µM (series often up to 57.7 µM), for the others: at the highest dose activity change, negative = decrease; actives 0.93% (n = 280,000); tau K18 P301L (four-repeat tau fragment) Alexa594 fluorescence, heparin fibrillization; AID 1463; also: % is scaled to controls: 0 for no effect and ±100 for the full control effect; nearly all actives have a fitted effect of over 55% in size
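Human K18 P301L tau (15 uM unlabeled plus 0.24 uM Alexa 594-labeled, final) in 100 mM sodium acetate pH 7 was mixed with compound and 20 uM heparin and incubated 6 hr at 37 C.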
Active calls of the source: *; ? = inconclusive; . = not tested or not shown; [ ] = another dose, or the depositor's remark. Unless noted, calls follow the shape of the dose curve; as a rule, active = well fitted curve in the direction sought with a large enough effect; inconclusive = small, poorly fitted or top-dose-only effect, or another doubt; inactive = no such curve, though single readings can be large; an effect the other way counts as inactive or inconclusive. Potency is read from the fitted curve at half-maximal effect.

SMILES	aGlu spleen mod	Epigenetic reg	GAA glycogen	GAA inhib	GLA spleen mod	ALDH1A1 block	Tau fluor counter
Cc1cc2c(=O)n(Cc3ccco3)c(SCC(=O)N3CCCc4ccccc43)nc2s1	-8.4%	-1.1%	-6.6%	?	0.3%	11.2µM*	-2.6%
CC(C)CCNC(=O)C(c1ccco1)N(Cc1ccccc1)C(=O)c1snc(C(N)=O)c1N (stereo unspecified)	-1.0%	0.9%	-11.4%	1.5%	11.0%	?	-16.9%
CCCN1C(=O)c2ccc(C(=O)NC3CCCCC3)cc2C1=O	-12.1%	0.0%	4.0%	0.5%	2.6%	?	0.0%
COc1ccc(-c2nnc(S/C(=C/c3ccc(Cl)cc3)C(=O)O)o2)cc1	0.8%	-0.2%	7.2%	1.1%	-2.8%	?	-13.1%
CCCCCn1c(SCc2cccc(C)c2)nc2c1c(=O)[nH]c(=O)n2C	5.6%	0.0%	8.6%	.	10.1%	.	-7.6%
COc1ccc(C2N(c3ccc(Cl)cc3)N=C(C(C)=O)N(C)N2C(C)=O)cc1 (stereo unspecified)	4.8%	0.1%	-8.7%	-5.0%	-1.6%	-2.2%	-17.7%
Fc1ccc(-c2cc3nc4c(c(N5CCOCC5)n3n2)CCCC4)cc1	-6.9%	1.4%	5.0%	-10.8%	-0.1%	-15.5%	-16.7%
Fc1ccc(NC(=S)Nc2cc(-c3ccccc3)[nH]n2)cc1Cl	-2.6%	6.2%	?	6.9%	-0.5%	1.41µM*	-9.9%
COc1ccc(N/N=C(/C(N)=O)C2=NC(C)(C)Cc3ccccc32)cc1	2.8%	-0.9%	?	?	1.9%	-15.6%	?
CNC1CCC(c2ccc(Cl)c(Cl)c2)c2ccccc21 (stereo unspecified)	1.2%	1.1%	.	.	2.0%	-6.4%	-12.2%
COc1ccc(-c2cc(C(N)=O)nc(N3CCCCCC3)n2)cc1	-0.5%	-2.4%	-2.7%	?	10.1%	?	0.5%
C(=N\c1c(-c2ccccc2)nc2n1CCS2)/c1ccccc1	-1.0%	-1.1%	?	-1.1%	0.2%	?	?
O=C(CCSc1nnc2ccc3ccccc3n12)Nc1ccc(F)cc1	-3.0%	10.8%	2.1%	12.1%	4.4%	?	-8.6%
N#Cc1c(-c2ccc(F)cc2)cc(C2CC2)nc1SCC(=O)c1cccs1	-6.1%	10µM*	10.0%	-22.2%	-1.1%	6.3%	-8.0%
CC1=C(C(=O)OC2CCCC2)C(c2ccc(C)o2)C2=C(CC(c3cccs3)CC2=O)N1 (stereo unspecified)	-1.5%	3.4%	-19.5%	-5.4%	3.0%	14.1µM*	-15.8%
CCN(CC)C(=O)C1=C(C)Nc2nnnn2C1c1cccnc1 (stereo unspecified)	8.1%	-1.1%	6.6%	-9.9%	8.1%	12.6%	4.9%
COc1cccc(NC(=O)c2cc([N+](=O)[O-])ccc2NC(=O)CNCC2CCCO2)c1 (stereo unspecified)	-5.7%	-0.6%	23.2%	-9.7%	-8.9%	-8.3%	-15.8%
CC1CCCCC1NC(=O)c1cn(C)c2ccc(S(=O)(=O)N3CCCC3)cc2c1=O (stereo unspecified)	-11.7%	-2.1%	-1.2%	?	-4.0%	12.6µM*	-20.8%
O=C(Cc1ccccc1)N/N=C/c1ccccc1OCc1ccc(Cl)cc1	-15.7%	0.0%	-7.6%	-3.4%	-2.9%	-10.9%	-7.9%
CCc1ccc(C2C(C(=O)O)c3ccccc3C(=O)N2C)cc1 (stereo unspecified)	-4.6%	0.1%	3.8%	-2.5%	-3.3%	9.7%	-4.9%
O=C(CN(C(=O)c1ccc(Cl)cc1)C1CCCCC1)Nc1ccc(Cl)c([N+](=O)[O-])c1	1.1%	1.1%	3.8%	?	-1.5%	?	-26.6%
CCOC(=O)c1c(NC(=O)CSc2nnnn2-c2ccccc2)sc2c1CCC(C)C2 (stereo unspecified)	-23.8%	0.1%	-3.0%	-1.1%	-14.3%	-8.3%	-18.3%
Cc1nn(CCC(=O)NNC(=S)NCC(C)C)c(C)c1Br	2.3%	2.5%	-11.3%	-1.9%	4.9%	9.1%	-6.6%
Cc1ccc(/C=c2\s/c(=C(/C#N)C(=O)N3CCCC3)n(Cc3ccco3)c2=O)s1	-5.6%	?	-2.6%	?	2.6%	3.55µM*	?
O=C(COc1ccc([N+](=O)[O-])cc1)N1CCN(c2nnc(-c3ccccc3)c3ccccc23)CC1	-1.0%	2.1%	1.6%	.	-1.4%	.	-18.8%
Cc1cccc(CCNc2nc3ccccc3n3nnnc23)c1	-6.4%	-0.9%	0.0%	-2.0%	-2.7%	3.0%	1.6%
CCOC(=O)C1=CN(c2cccc(F)c2)C=C(C(=O)OCC)C1c1cc(OC)c(O)c([N+](=O)[O-])c1	-1.0%	-0.9%	-17.9%	?	4.3%	6.1%	?
O=C1OC(c2ccc(F)cc2)=N/C1=C\c1ccc(Br)o1	-1.7%	-0.6%	?	0.3%	-8.4%	2.7%	-0.9%
C=CCSc1nc2ccccc2n1C(=O)/C=C/c1ccc(OC)c(OC)c1	-10.1%	8.0%	8.1%	7.9%	8.9%	6.7%	-19.5%
COc1ccc2c(c1)CCc1c(C(=O)N3CC4(C)CC3CC(C)(C)C4)noc1-2 (stereo unspecified)	2.0%	-0.8%	-11.6%	-4.6%	3.4%	4.7%	-7.9%

Structural class: the compounds so far with a thiophene ring, fused or not (5)
SMILES	aGlu spleen mod	Epigenetic reg	GAA glycogen	GAA inhib	GLA spleen mod	ALDH1A1 block	Tau fluor counter
Cc1cc2c(=O)n(Cc3ccco3)c(SCC(=O)N3CCCc4ccccc43)nc2s1	-8.4%	-1.1%	-6.6%	?	0.3%	11.2µM*	-2.6%
N#Cc1c(-c2ccc(F)cc2)cc(C2CC2)nc1SCC(=O)c1cccs1	-6.1%	10µM*	10.0%	-22.2%	-1.1%	6.3%	-8.0%
CC1=C(C(=O)OC2CCCC2)C(c2ccc(C)o2)C2=C(CC(c3cccs3)CC2=O)N1 (stereo unspecified)	-1.5%	3.4%	-19.5%	-5.4%	3.0%	14.1µM*	-15.8%
CCOC(=O)c1c(NC(=O)CSc2nnnn2-c2ccccc2)sc2c1CCC(C)C2 (stereo unspecified)	-23.8%	0.1%	-3.0%	-1.1%	-14.3%	-8.3%	-18.3%
Cc1ccc(/C=c2\s/c(=C(/C#N)C(=O)N3CCCC3)n(Cc3ccco3)c2=O)s1	-5.6%	?	-2.6%	?	2.6%	3.55µM*	?

Later entries
SMILES	aGlu spleen mod	Epigenetic reg	GAA glycogen	GAA inhib	GLA spleen mod	ALDH1A1 block	Tau fluor counter
CC(C)c1ccc(-c2c(C#N)c(N)nc(SCC(=O)N3CCCCCC3)c2C#N)cc1	2.4%	0.0%	1.6%	6.8%	3.5%	?	-19.4%
CCOC(=O)c1ccccc1NC1c2ccccc2C(=O)N1c1cc(C)ccn1 (stereo unspecified)	3.0%	-0.2%	-30.7%	-8.5%	7.8%	?	-24.0%
Cc1nnc(-c2cccc(Br)c2)c2cn(-c3cccc(Br)c3)nc12	-0.6%	0.4%	-11.0%	-12.9%	2.1%	?	-5.9%
O=C(Nc1nc2ccsc2c(=O)s1)c1ccc(F)cc1Cl	1.6%	2.1%	-3.2%	.	?	.	-2.2%
O=C(N/N=C/c1ccncc1)c1ccc(NS(=O)(=O)c2cccs2)cc1	1.5%	-0.6%	-1.3%	?	-6.5%	?	-0.8%
COc1ccc(C2=NOC(C(=O)NCc3ccc(F)cc3)C2)cc1 (stereo unspecified)	2.1%	-1.2%	3.6%	-0.6%	7.6%	3.5%	4.3%
Cc1ccccc1N(CC(=O)NC1CCCC1)C(=O)c1oc(C(C)(C)C)cc1C	-0.1%	3.5%	-3.1%	1.3%	1.9%	11.2%	8.0%
Cc1nc(NC(=O)c2ccccc2)sc1Cc1ccc2c(c1)OCO2	6.2%	4.5%	-2.9%	1.8%	1.2%	3.6%	-29.4%
Cc1c(C(=O)OC(C)C)sc(NC(=O)C2CCCO2)c1C(=O)OC(C)C (stereo unspecified)	-14.9%	1.6%	-8.6%	?	6.2%	-12.3%	-27.6%
COc1cc([N+](=O)[O-])c(OC)cc1SCc1n[nH]c(=S)n1-c1ccc(C)cc1	0.6%	2.1%	-15.1%	.	-1.0%	.	-18.7%
CCOc1ccc(C=NC23CN4CN(CN(C4)C2)C3)cc1	-10.6%	-1.1%	2.8%	2.9%	0.2%	20µM*	-0.5%
O=C(COc1ccccc1)NCC(=O)Nc1cccc(S(=O)(=O)NC2=NCCC2)c1	-5.3%	0.0%	5.4%	0.7%	-1.4%	12.0%	13.1%
CCn1c(COc2ccc(Cl)cc2)nnc1SCC(=O)Nc1ccc2c(c1)OCCO2	1.4%	-3.9%	1.4%	-11.2%	-3.7%	?	-16.0%
O=C(NCc1cccs1)C1CCCN(c2nc3ccccc3o2)C1 (stereo unspecified)	-5.6%	-1.3%	-2.2%	4.6%	-2.0%	-6.6%	-5.8%
FC(F)(F)c1ccc(N2CCN(c3cc(-c4ccccc4)nc4ncnn34)CC2)nc1	2.9%	-2.7%	2.3%	-3.4%	6.6%	52.0%[activator]	-11.2%
COc1ccc(S(=O)(=O)N2c3ccccc3OCC2C(C)(C)C)cc1 (stereo unspecified)	1.8%	1.1%	-3.9%	?	7.1%	-0.6%	-20.6%
CCOc1cc(O)c(-c2[nH]ncc2-c2nc(C)cs2)cc1CC	2.0%	-1.0%	0.7%	.	4.3%	.	-24.6%
COc1cc(/C=C2\CCCc3c2nc2ccccc2c3C(=O)O)cc(OC)c1O	-12.2%	2.1%	?	-14.0%	-3.8%	14.1µM*	-19.9%
CC(C)(C)n1nnnc1C(c1ccc(Cl)cc1)N1CCCc2ccccc21 (stereo unspecified)	-3.2%	0.0%	4.4%	?	3.6%	0.2%	-9.2%
O=C(NCC12CC3CC(CC(C3)C1)C2)c1nn2c(c1Cl)NC(c1ccco1)CC2C(F)(F)F (stereo unspecified)	0.4%	?	3.1%	-12.9%	1.9%	9.5%	-6.0%
COc1ccc(CNCc2cccc(Cl)c2)cc1	-14.1%	-1.0%	-0.3%	3.2%	4.9%	-3.4%	-2.5%
COC(=O)CSc1nc2c(c(-c3ccc(O)cc3)c1C#N)CCCC2	-2.1%	-0.9%[10.1 µM]	-9.7%	7.7%	0.3%	?	?
CCCOc1ccc(C(=O)C(CN2CCCC2)c2ccccc2)cc1 (stereo unspecified)	0.7%	0.0%	0.0%	-20.5%	-3.0%	-7.0%	-3.9%
COc1cccc(NC(=S)N/N=C2\CC3CCC2(C)C3(C)C)c1 (stereo unspecified)	-3.8%	-0.9%	-8.9%	-7.4%	-3.4%	-0.1%	-7.7%
CCOC(=O)Nc1cccc(NC(=O)c2cc(OC)cc(OC)c2)c1	-5.3%	-1.0%	-24.3%	-5.1%	3.2%	0.5%	-15.9%
CCOC(=O)CSc1c(-c2cccs2)[nH]c2ccccc12	1.8%	0.0%	0.7%	-3.6%	1.1%	?	8.91µM*[quencher]

A portion of the library. The share of hits here may be higher or lower than overall.
